Mtb growth = M. tuberculosis H37Rv growth inhibitors, H37Rv strain (AID 1626); actives 0.95% (n = 220,000); inhibition, % at 10 µM; hits with a dose series show IC50 in µM; M. tuberculosis H37Rv growth inhibition; higher % means a stronger effect;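 active = confirmed in a dose series; inconclusive = inhibition above 80% but not taken into the dose series; inactive = below 80% or under 30% at every dose of the series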;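 note: bacteria incubated seven days before Alamar blue readout; 0% = bacteria only wells and 100% = bacteria with antibiotic wells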
Mtb bLac sens = beta-lactam sensitization of Mtb H37Rv, H37Rv. M. tuberculosis H37Rv growth with meropenem, percent inhibition; hits of this screen are not shown here. AID 434955, 2010. inhibition, % at 25 µM. actives 0.27% (n = 330,000);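 active = about 74% or more and at least 40 points above the plate without the antibiotic, then above 30% in a dose series; inconclusive = first-round hits that could not be retested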;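 note: growth measured after seven days incubation then overnight dye step; 0% = bacteria only wells and 100% = bacteria with antibiotic; twin plates without the antibiotic show which effects depend on it; some results filed as inactive read as strong as hits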
YopH inh = YopH tyrosine phosphatase inhibitors, primary screen, biochemical, fluorescence Ex485/Em525; actives 0.16% (n = 140,000); inhibition, %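 (about 10 µM by stock and volumes)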; AID 898, 2007;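 active = inhibition of 50% or more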;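 note: controls were vehicle for no effect and minimum signal wells for full effect; inactives centre near -20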
RecA intein inh = Mtb RecA intein splicing inhibitors, primary screen, biochemical, fluorescence, HTS | Protein RecA (Mycobacterium tuberculosis (strain ATCC 25618 / H37Rv)), P9WHJ3 | cell-free RecA intein splicing | inhibition, %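 (about 9 µM by stock and volumes)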 | actives 0.75% (n = 290,000) | AID 2221, 2009; in the data active = inhibition above about 30%; inconclusive = no clear call, values can overlap the other calls;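 note: 0% = vehicle wells and 100% = reference inhibitor control wells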
Target sequence (P9WHJ3 whole entry, looked up): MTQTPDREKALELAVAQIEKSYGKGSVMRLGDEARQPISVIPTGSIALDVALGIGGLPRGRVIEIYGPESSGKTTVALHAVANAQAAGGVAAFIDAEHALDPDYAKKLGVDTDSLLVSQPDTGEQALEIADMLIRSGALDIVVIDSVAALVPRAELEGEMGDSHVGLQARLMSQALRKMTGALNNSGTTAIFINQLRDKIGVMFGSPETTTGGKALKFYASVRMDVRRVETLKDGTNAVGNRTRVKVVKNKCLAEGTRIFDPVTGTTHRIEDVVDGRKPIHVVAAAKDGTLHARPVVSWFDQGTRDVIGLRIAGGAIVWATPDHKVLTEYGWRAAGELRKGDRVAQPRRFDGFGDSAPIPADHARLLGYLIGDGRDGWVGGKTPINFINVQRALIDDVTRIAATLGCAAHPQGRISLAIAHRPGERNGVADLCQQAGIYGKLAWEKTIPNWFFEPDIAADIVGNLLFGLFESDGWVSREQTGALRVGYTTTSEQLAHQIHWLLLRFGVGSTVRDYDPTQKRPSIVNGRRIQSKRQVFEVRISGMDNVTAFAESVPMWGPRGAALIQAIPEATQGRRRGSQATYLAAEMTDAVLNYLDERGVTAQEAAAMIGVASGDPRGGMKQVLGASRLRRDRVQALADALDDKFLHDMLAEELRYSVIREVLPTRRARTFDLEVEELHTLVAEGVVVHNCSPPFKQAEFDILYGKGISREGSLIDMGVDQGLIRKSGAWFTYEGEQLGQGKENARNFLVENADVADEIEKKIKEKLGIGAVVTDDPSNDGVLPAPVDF
Arbovirus inh = antivirals against arbovirus infection, primary screen, cell-based, full library, 10K replicate subset; arbovirus infection cell-based antiviral screen; inhibition, % at 10 µM; actives 0.37% (n = 200,000);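 active = inhibition from about 30%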;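 note: bluetongue infection of BSR cells; cell survival read as ATP light after 72 h; 0% = infected wells without compound and 100% = uninfected wells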
Arbovirus inh repeat = further read-out of Arbovirus inh, marked with its call; inhibition, %; measured here: 10K subset replicate screen; many hits read low in the repeat;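 first of two repeat runs on a subset; 0% = infected and 100% = uninfected wells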
* marks the source's active call; other numbers are inactive results; ? = inconclusive; / = not tested or not shown. An excerpt; the hit share may differ from the screen's.

SMILES	Mtb growth	Mtb bLac sens	YopH inh	RecA intein inh	Arbovirus inh	others
CCOC(=O)N1CCN(CC(O)COc2ccccc2C(C)C)CC1 (stereo not given)	-1.7%	0.7	-28.2	0.2	0.7
COc1ccccc1C(=O)NCC(=O)Nc1ccccc1	-7.7%	-22.9	-4.8	0.5	5.2
CCC(=O)N(Cc1cc2ccc(C)cc2[nH]c1=O)c1ccccc1OC	/	0.8	/	-0.5	/
CC1(C)Cc2c(C#N)c(SCCOc3ccccc3)nc(N3CCOCC3)c2CO1	-3.8%	1.2	-11.8	2.8	-4.3
CCOC(=S)SCC(=O)Nc1nc(C)c(C)s1	-6.2%	-6.6	/	7.4	/
COc1cc(CC(NC(C)=O)C(=O)NC2CCN(C(=O)Nc3ccccc3C)CC2)cc(OC)c1 (stereo not given)	/	5.7	/	-2.4	/
CC(=O)c1cnc2nc(SCc3cccc(C)c3)nn2c1C	/	5.5	/	-10.7	/
COc1ccc(S(=O)(=O)N2CCOCC2)cc1NC(=O)Cc1c(Cl)cccc1Cl	-2.3%	2.9	-25.3	2.1	-6.2
Cc1cccc(C)c1NC(=O)COc1cccc(/C=N/NC(=O)C(=O)NCc2ccccc2)c1	-4.9%	9.1	-33.5	-0.9	-8.1
COc1ccc(OC)c(NC(=O)CCCC(=O)NC2CCCCC2)c1	/	-1.9	/	-1.4	/
Cc1nn(Cc2c(F)c(F)c(F)c(F)c2F)c(C)c1NC(=O)c1c(-c2ccccc2)nn(-c2ccccc2)c1C	-1.9%	-4.0	20.7	0.2	-11.5
Cc1ccc(O)c(NC(=O)c2ccc3c(c2)C(=O)N(Cc2ccco2)C3=O)c1	/	-0.7	/	-0.3	/
c1ccc(-n2nnnc2SCCCSc2nc3ccccc3s2)cc1	-7.1%	3.7	-41.5	12.0	3.1
CCCSc1nc2c(cnn2-c2ccc(C)c(C)c2)c(=O)[nH]1	-2.3%	-1.4	-48.4	0.7	-0.1	Arbovirus inh repeat=-1.2
O=C(NC(=O)c1ccccc1)Nc1cccc(S(=O)(=O)N2CCCCC2)c1	/	4.5	/	-0.2	/
O=C1C(=O)N(Cc2ccccc2)C(=O)N1CCN1C(=O)c2ccccc2C1=O	2.9%	5.2	/	0.7	17.4
COc1ccc(/C=N/NC(=S)Nc2ccccc2)cc1	-0.6%	7.6	/	3.1	-1.2
O=C(NCc1ccccc1)C1CCC(=O)N(CC2CCCCC2)C1 (stereo not given)	/	2.0	/	-1.7	/
CCN(CC)c1ccc(N=Cc2c(C)[nH]c3ccccc23)cc1	22.1µM*	86.5	-21.5	2.3	-6.2
Cc1ccccc1C(=O)NC(Oc1ccccc1)C(Cl)(Cl)Cl (stereo not given)	5.1%	35.1	-39.1	3.4	0.2
NS(=O)(=O)c1ccc(CCNS(=O)(=O)c2ccc(Cl)cc2)cc1	/	1.7	/	-2.4	/
CCN(CCNC(=O)CC1Oc2ccccc2NC1=O)c1ccccc1 (stereo not given)	-2.0%	-1.2	-11.1	-2.5	-1.0
C=CCN1C(c2ccccc2)=CS/C1=C(/C#N)c1nnc(N2CCOCC2)n1-c1ccccc1	5.5%	-2.5	-25.5	2.4	3.9
CC(=O)c1cccc(NC(=O)C2CC(=O)N(Cc3ccccc3)C2)c1 (stereo not given)	-1.4%	2.2	-75.7	-0.8	6.6
NCCc1c[nH]c2ccccc12	-3.1%	5.6	-17.3	/	4.8

Five structures from above, sorted by length of the SMILES, low to high:
SMILES	Mtb growth	Mtb bLac sens	YopH inh	RecA intein inh	Arbovirus inh	others
COc1ccccc1C(=O)NCC(=O)Nc1ccccc1	-7.7%	-22.9	-4.8	0.5	5.2
COc1ccc(/C=N/NC(=S)Nc2ccccc2)cc1	-0.6%	7.6	/	3.1	-1.2
CC(=O)c1cccc(NC(=O)C2CC(=O)N(Cc3ccccc3)C2)c1 (stereo not given)	-1.4%	2.2	-75.7	-0.8	6.6
O=C1C(=O)N(Cc2ccccc2)C(=O)N1CCN1C(=O)c2ccccc2C1=O	2.9%	5.2	/	0.7	17.4
Cc1ccc(O)c(NC(=O)c2ccc3c(c2)C(=O)N(Cc2ccco2)C3=O)c1	/	-0.7	/	-0.3	/

(listing goes on)
SMILES	Mtb growth	Mtb bLac sens	YopH inh	RecA intein inh	Arbovirus inh	others
CCn1cc([N+](=O)[O-])c(C(=O)NCc2ccc(Cl)cc2)n1	-3.5%	4.7	/	-3.1	-9.9
C=CCN(C#N)c1nc(OC)nc(N2CCCC2)n1	-9.6%	-12.3	5.1	4.7	12.7
CCn1nnc2cc(C(=O)O)ccc21	-3.2%	-6.3	/	6.4	/
Cc1occc1C(=O)NN=C1C2CC3CC(C2)CC1C3	-4.9%	-0.9	-25.2	0.2	0.4
CCn1c(SCC(=O)N2CCCCC2)nc(O)cc1=O	5.0%	-2.4	-40.9	3.0	4.0
O=C(Nc1cccc(-c2nc3ccccc3[nH]2)c1)c1ccco1	-5.7%	15.7	-46.1	-8.9	-31.9
CCOCCCn1c(=S)[nH]c2cc(C(=O)N3CCN(C4CCCCC4)CC3)ccc2c1=O	/	-0.3	/	-2.5	/
CCOC(=O)c1ccc(CC2S/C(=C(\C#N)C(C)=O)NC2=O)cc1 (stereo not given)	1.5%	-8.4	-30.6	81.7*	-3.3
Clc1ccc2c(NNc3ccccc3Cl)ccnc2c1	-17.4%	29.4	-36.6	-1.2	0.6
COc1ccc(CNC(=O)C/C(C)=N/NC(=O)c2ccc(OC)cc2OC)cc1	/	8.6	/	0.4	/
O=C(Nc1ccon1)Nc1ccc(F)cc1F	/	1.0	/	1.9	/
Cc1ccc(C)c(N2CCN(C(=O)C3CCN(c4nc(C)cc(C)n4)CC3)CC2)c1	6.6%	95.7	-31.4	10.4	-11.4
COc1cccc(-c2c(C#N)c(SC)nc3cc(C)nn23)c1	-4.7%	-4.6	/	-3.5	/
O=C(c1cccc(Br)c1)N1CCN(S(=O)(=O)N2CCOCC2)CC1	-7.7%	-7.0	/	2.8	-1.1
COc1ccc(/C=C2\SC(=S)N(CCC(=O)Nc3ccccc3C(=O)O)C2=O)cc1	/	3.3	/	24.5	/
Cc1cc(C)n(-c2cc(Oc3ccccc3)ncn2)n1	16.9%	-3.8	-7.5	-0.3	-5.2
Cc1ccc(NC(=O)/C=C\C(=O)O)c([N+](=O)[O-])c1	0.9%	/	-28.2	1.8	6.4
COc1ccc(C2CCN(CC(=O)N(C)C)CC2O)cc1 (stereo not given)	-2.2%	2.7	/	/	6.7
Cc1cc(C)cc(C(=O)NCC(=O)OCC(=O)Nc2ccc(C)cc2Br)c1	-3.5%	-4.1	/	0.0	5.3
COc1ccccc1N1CCN(C(=O)c2ccncc2)CC1	-2.1%	5.6	-40.0	4.7	1.5
Cc1c(Cl)cccc1NC(=S)N1CCOCC1	-4.2%	-5.2	-25.0	-2.3	0.1
O=C(CSc1nccn1Cc1ccccc1)NC1CCCC1	/	-8.4	/	0.3	/
O=C(CC(=O)c1ccccc1)Nc1ccc2c(c1)OCCO2	8.9%	/	-49.5	-0.3	-0.5
CC(C)OC(=O)c1c(NC(=O)c2cnn3c2NC(c2ccccc2)CC3C(F)(F)F)sc2c1CCCC2 (stereo not given)	-5.7%	-10.8	-15.8	3.4	-0.5
COc1ccc(/C=C/C(=O)O/N=C(\N)c2ccccc2)cc1OC	1.8%	4.6	-33.4	3.9	14.6

The list continues:
SMILES	Mtb growth	Mtb bLac sens	YopH inh	RecA intein inh	Arbovirus inh	others
Cc1cc(NCCN)nc2ccccc12	/	-0.5	-5.9	1.0	2.3
Cc1cc(C)n(-c2nc3c(c(=O)[nH]c(=O)n3C)n2Cc2ccccc2)n1	3.2%	-9.9	4.0	2.5	-0.6
OCCN(CC#CCn1c2ccccc2c2ccccc21)CCO	4.4%	-4.0	/	-4.9	/
O=C(c1ccco1)N1CCN(C(=O)c2cc(-c3ccc(F)cc3)no2)CC1	/	-4.0	/	-0.3	/
COc1ccc2c(C)cc(SCC(=O)Nc3cccnc3Cl)nc2c1	-0.9%	5.0	/	0.9	-9.3
O=C(CSc1nnc(-c2ccncc2)n1Cc1ccco1)N1c2ccccc2Sc2ccc(Cl)cc21	-7.8%	-8.3	-11.6	19.9	10.8
Cn1c(=O)[nH]c(=O)c2c1nc(N1CCN(c3cccc(Cl)c3)CC1)n2CCCc1ccccc1	-6.9%	/	-2.9	-1.8	-0.6
COC(=O)CSc1nnc(-c2ccco2)n1Cc1ccco1	-4.1%	8.4	-45.4	2.2	6.5
O=C(NCc1cccc(F)c1)C1CCC(=O)N(C2CC2)C1 (stereo not given)	/	-0.1	/	0.2	/
CCN1CCc2c(sc(NC(=O)Cc3ccccc3)c2C(=O)OC)C1	/	-6.0	/	-2.8	/
CC1CCCN(C(=O)COC(=O)c2ccc[nH]c2=O)C1 (stereo not given)	-2.8%	6.4	12.4	/	1.7
COC(=O)CN1CCN(C(c2ccccc2)c2ccccc2)CC1	-6.4%	-8.1	22.0	-13.2	2.1
Cc1cccc(N(CC(=O)NC2CCCC2)C(=O)CS(=O)CC(=O)Nc2ccc3c(c2)OCO3)c1 (stereo not given)	-0.5%	-4.1	-36.5	1.0	0.3
CN1CCN(c2cc(-c3ccccc3)nc3cc(-c4ccc(F)cc4)nn23)CC1	?	95.8	1.9	-4.5	3.9
Cc1cccc2c(=O)cc(C)n(CC(N)=O)c12	-4.2%	-9.8	/	0.6	/
O=[N+]([O-])c1ccccc1SN(Cc1ccccc1)c1ccccn1	0.5%	2.3	-20.4	-3.4	-0.4
O=C1C(Cl)=C(NCCc2ccccc2)C(=O)N1CCc1ccccc1	8.4%	-5.4	-47.5	-123.5	4.1
Cc1ccccc1CC(=O)N1CC(C)OC(C)C1 (stereo not given)	/	-0.6	/	-2.9	/
CCN1C(=O)/C(=C/c2ccc(C)s2)NC1=S	9.9%	-5.7	-17.0	0.9	-8.3
CCC1(c2ccc(Cl)cc2)NC(=S)N(c2ccccc2)N1 (stereo not given)	-4.3%	3.0	-38.2	1.8	-29.1
O=C(Nc1nc(-c2cccs2)c(-c2cccs2)s1)C1(c2ccccc2)CC1	2.2%	-5.9	-24.3	-0.2	6.8
CCC1CCCCN1CCCNC(=O)c1cn(CC(C)C)c(=O)c2cc(OC)c(OC)cc12 (stereo not given)	-1.9%	-0.1	0.9	4.6	2.6
COc1ccc(C2c3c(oc4ccccc4c3=O)C(=O)N2c2ccc(C)cn2)cc1OC (stereo not given)	11.4%	-0.8	-29.2	-4.0	6.2	Arbovirus inh repeat=7.1
COC(=O)c1cccc(C23CC4(C2)[C@H](CN(Cc2cccnc2)[C@@H]4c2ccccc2)C3c2ccc(C(F)(F)F)cc2)c1 (stereo not given in full)	9.9%	-2.0	/	2.2	/
O=C(/C(=N/N=C/c1ccc(O)c(O)c1O)c1ccccc1)c1ccccc1	-0.3%	-2.0	-10.6	2.6	-24.1

Continued:
SMILES	Mtb growth	Mtb bLac sens	YopH inh	RecA intein inh	Arbovirus inh	others
COc1ccc2c(c1)O[C@H]1c3ccc(O)cc3OC[C@@H]21	5.6%	-10.2	/	1.6	/
Cc1ccc(O)c(-c2cc(C(=O)Nc3ccc(S(=O)(=O)Nc4nccc(C)n4)cc3)[nH]n2)c1	-4.3%	7.2	/	-3.7	/
CC1CCCC(NC(=O)C2CCN(S(=O)(=O)N3CCCCCC3)CC2)C1C (stereo not given)	-5.3%	2.8	-23.5	-0.7	-7.8
COc1ccc(CCN=C(N)Nc2nc(C)cc(C)n2)cc1	2.8%	1.5	/	-1.5	-1.8
CCCn1nnnc1-c1cccc(Cl)c1	-3.6%	-11.0	-18.1	/	5.8
CCOC(=O)c1ccccc1NC(=O)COC(=O)C1CC(=O)N(CCc2ccccc2)C1 (stereo not given)	/	8.3	/	-0.1	/
CCc1ccc(-c2cc(C)no2)cc1S(=O)(=O)N1CCN(c2ccccc2F)CC1	/	-5.3	/	9.0	/
O=C1C2C3C=CC(C4CC34)C2C(=O)N1c1ccc2c(c1)OCO2 (stereo not given)	3.6%	-4.4	/	1.0	-6.7
COc1ccccc1NC(=O)c1sc(Cl)nc1C	/	-0.8	/	-1.6	/
Cc1nc2ccc(C(=O)N3CCN(c4ccccc4)CC3)cc2s1	-1.1%	6.4	-33.1	0.5	2.0
CC(C)N1CC=C2C(C#N)=C(N)C(C#N)(C#N)[C@H](c3ccoc3)[C@H]2C1	-5.7%	-0.1	-26.7	-138.7	2.3
CCn1c(SCc2ccc(C(=O)Nc3nccs3)cc2)nnc1-c1ccc(NC(C)=O)cc1	0.3%	38.0	-18.6	1.6	20.4
CC1C(=O)N2CCCc3cc(NC(=O)CC(C)(C)C)cc1c32 (stereo not given)	/	7.0	/	-6.7	/
O=C(C1Cc2ccccc2CN1C(=O)c1ccccc1)N1CCN(c2ccccc2)CC1 (stereo not given)	-0.2%	-9.6	/	0.9	/
